HIV Env fusion – inhibitors of HIV Env-mediated cell fusion. 360,000 compounds, 1.1% hits. HeLa-JRFL Env/CEM21 cell fusion, luciferase. AID 651610. inhibition, % at 12.3 µM;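 active = mean replicate inhibition score of at least 50 and every replicate individually at or above 50; inconclusive = only one of the two criteria met; inactive = mean below 50 and not all replicates reaching 50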;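 note: 0% = plate neutral controls and 100% = maraviroc near 300 nM; one replicate is shown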
Rce1 inh – blocks yeast Ras-converting enzyme; Q03530; yeast membranes, quenched prenylated peptide cleavage fluorescence; calls only; 290,000 compounds, 0.27% hits; AID 2563;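 active = fall in fluorescence gain of 50% or more versus controls, with final raw signal at or below 3038400; inconclusive = same 50% fall but final raw signal above 3038400; inactive = fall in fluorescence gain under 50%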;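 note: plate controls were neutral control wells for no effect and wells lacking membranes for full effect; tested at 10 µM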
Target sequence (Q03530 whole entry, looked up): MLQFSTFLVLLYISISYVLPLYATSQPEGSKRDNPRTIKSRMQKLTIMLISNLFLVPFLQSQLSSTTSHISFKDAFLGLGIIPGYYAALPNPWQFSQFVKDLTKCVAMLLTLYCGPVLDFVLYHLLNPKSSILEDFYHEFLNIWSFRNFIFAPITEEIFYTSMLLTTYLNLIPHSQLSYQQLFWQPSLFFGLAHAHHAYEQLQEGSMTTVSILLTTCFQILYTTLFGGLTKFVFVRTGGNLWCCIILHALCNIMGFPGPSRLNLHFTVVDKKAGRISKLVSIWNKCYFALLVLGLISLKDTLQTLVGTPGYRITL
MT1-MMP act inh – inhibitors of human MT1-MMP activation; HT1080 RFP-PRO-GFP cells, GFP/RFP ratio fluorescence, overnight; percent of plate control window, DMSO zero; GFP/RFP ratio change, % at 20 µM; 360,000 compounds, 0.061% hits; AID 651647;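 active = GFP/RFP ratio change of at least 30% with cell ATP level not reduced by more than half and red fluorescence within 50% of control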; note: strong numbers were not always called active
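Assay system: RFP-PRO-GFP reporter HT1080 cells; read-out basis: GFP/RFP fluorescence ratio; benchmarks: DMSO wells and RFP-L50D-GFP cells; doses: 20 µM single dose, 1% DMSO; schedule: overnight cell settling, then overnight compound exposure, 37 °C, 5% CO2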
eIF4H inh – inhibitors of RNA binding by human eIF4H | Q15056 | AID 2012 | inhibition, % at 35 µM | eIF4H fluorescence polarization binding assay | 290,000 compounds, 0.94% hits;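 active = 50% or more with normal probe brightness, or confirmed in later tests; inconclusive = above 50% with abnormal brightness, or retests that disagree; inactive = below 50% or failed in later tests; about a fifth of its hits are not listed in these tables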;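 note: calls also rest on retests at 20 µM and on dose response follow-up; 0% = protein and probe with vehicle and 100% = probe without protein; strong numbers were not always called active; many hits fall short of the cut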
CSC inhib – blocks cancer stem cells; cancer stem cell-like cells viability, luminescence; inhibition, % at 7.5 µM; 300,000 compounds, 1.1% hits;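 active = mean at 75% or more and at least half the replicates too; inconclusive = mean and replicates disagree; tested in HMLE shEcad cells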;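 note: 0% = median of negative and 100% = median of positive control wells; the first replicate is given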
PABP polyA inh – blocks human PABP binding to poly(A) RNA. 290,000 compounds, 1% hits. inhibition, % at 35 µM. P11940. fluorescence polarization. AID 2014;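 active = 50% or more with normal probe brightness, or confirmed in later tests; inconclusive = above 50% with abnormal brightness, or retests that disagree; inactive = below 50% or failed in later tests; about a fifth of its hits are not listed in these tables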;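 note: calls also rest on retests at 20 µM and on dose response follow-up; controls were probe without protein and protein plus probe with vehicle; some compounds called inactive have numbers as strong as hits; many hits fall short of the cut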
Yeast UUG start – modulators of start codon recognition fidelity in yeast | S. cerevisiae UUG-firefly luciferase reporter, luminescence/redox ratio | activity score, % at 18.7 µM | 350,000 compounds, 0.13% hits | AID 602363;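 active = replicate mean at a twofold rise or more, about +100% in these data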;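 note: firefly luciferase made from a UUG start codon reports start codon fidelity; reporter light over untreated wells divided by growth signal over untreated wells; some hits fall short of that in this replicate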
eIF4H inh retest – also measured in eIF4H inh; calls as there; inhibition, %; compound at 20 µM; confirmation average;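 mean of two retest wells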
PABP polyA inh retest – also measured in PABP polyA inh; calls as there; inhibition, %; compound at 20 µM; confirmation repeats;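 mean of two retest wells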
MT1-MMP act inh RFP – also measured in MT1-MMP act inh; calls as there; RFP signal change, %; measured here: RFP expression control read;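 0 = vehicle wells; hits needed this value within 50% of zero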
The depositor's hits bear a star; i = inactive; ? = inconclusive; . = no result given.

SMILES	HIV Env fusion	Rce1 inh	MT1-MMP act inh	MT1-MMP act inh RFP	eIF4H inh	CSC inhib	PABP polyA inh	Yeast UUG start	others
CCOc1ccc(C(=O)Nc2ccc3c(c2)OCO3)cc1OCC	.	i	5	0	9	20	-2	8
COc1cc(/C=N/NC(=O)c2ccncc2)cc2c1OCO2	0	i	3	4	-6	-8	2	-18
Nc1cc(=O)[nH]c(SCc2nnnn2-c2ccc(Cl)cc2)n1	4	i	2	1	11	6	45	-7
Cn1c(O)c(N=NC(=O)CNC(=O)c2cccnc2)c2ccccc21	-10	i	-2	6	.	-13	.	-13
CCn1c(NCc2ccccc2NS(=O)(=O)c2ccc(C)cc2)nc2ccccc21	-36	i	-12	-14	-4	68	-16	.
CCOC(=O)N1CCN(CC(O)COc2c(C)cc(C)cc2C)CC1 (stereo not drawn)	4	i	-3	0	-3	-13	6	-12
Cc1sc2nc(SCC(=O)Nc3cccc(S(N)(=O)=O)c3)[nH]c(=O)c2c1C	.	.	2	4	.	-5	.	-4
O=C1Cc2ccccc2C(c2ccccc2)N1 (stereo not drawn)	-57	i	-1	3	6	.	24	-5
COc1ccc(S(=O)(=O)N2CCOCC2)cc1NC(=O)c1cccc(Cl)c1	-9	i	0	2	-1	18	6	1
Cc1cc(C)c(NC(=O)COC(=O)C2CCCO2)c(C)c1 (stereo not drawn)	6	.	1	-2	.	-2	.	-7
CC(C)(C)NCC(O)COc1cccc2c1CCC(=O)N2 (stereo not drawn)	-5	.	-3	-6	.	-8	.	-9
Cc1ccc(S(=O)(=O)N2[C@@H](c3ccc(Cl)cc3)C(C(=O)O)=C[C@H]2C(C)(C)C)cc1	-118	.	1	5	.	9	.	-7
COc1cccc2cc(C(=O)OCc3ccccc3)c(=O)oc12	4	i	8	-4	-4	-16	9	7
Cc1cc(C)n(CC(O)COc2ccccc2Br)n1 (stereo not drawn)	-12	i	-1	-1	5	-7	15	-12
CC1CCN(S(=O)(=O)c2nnc(NC(=O)COc3ccccc3F)s2)CC1	2	i	-2	-2	-16	19	11	3
O=C(COC(=O)/C=C/c1ccc(F)cc1)Nc1ccc2[nH]c(=O)[nH]c2c1	4	i	4	-1	.	-6	.	.
Cc1ccc(N2CC(C(=O)OCC(=O)c3ccc(F)cc3)CC2=O)cc1 (stereo not drawn)	-11	i	0	5	-5	6	9	-34
Cc1ccccc1-n1c(-c2csc3ccccc23)n[nH]c1=S	-9	i	-13	-4	0	7	-2	-26
c1ccc(-c2n[nH]nc2-c2ccccc2)cc1	.	i	3	1	-3	-6	-14	-14
O=C(O)c1nn(CCSc2ccccc2F)c(=O)c2ccccc12	-6	i	3	-1	2	-6	5	-7
CC(C(=O)O)N1C(=O)/C(=C/C=C/c2ccco2)SC1=S (stereo not drawn)	.	i	2	14	89*	-6	87*	-9
CCc1ccccc1NC(=O)CSc1n[nH]c(C)c1[N+](=O)[O-]	16	i	0	-5	1	8	20	.
CC1CCN(S(=O)(=O)c2ccc(NC(=O)C3CSC4(C)CCC(=O)N34)cc2)CC1 (stereo not drawn)	-8	i	3	-2	.	-8	.	-4
COc1ccc(N2CCC(CNC(=S)Nc3cccc(C)c3)C2)cc1 (stereo not drawn)	-2	i	0	2	-2	0	5	.
CN=C1C=C/C(=N/N=c2\ccn(O)cc2C)C=C1C	1	i	61*	0.7*	-17	10	0	53

Later entries:
SMILES	HIV Env fusion	Rce1 inh	MT1-MMP act inh	MT1-MMP act inh RFP	eIF4H inh	CSC inhib	PABP polyA inh	Yeast UUG start	others
COc1ccc(C(=O)NCc2c(CC(C)C)oc(C)c2C(=O)O)cc1	.	i	0	6	5	10	0	-13
O=C(CSc1cn[nH]n1)Nc1ccccc1C(F)(F)F	-6	i	-3	1	-24	0	1	-7
COc1ccc2cc(C(=O)N3CCc4ccccc43)[nH]c2c1	-250	i	-4	0	-6	2	-2	3
COc1ccc(CNC(=O)c2cccc3c(-c4cccnc4)coc23)cc1OC	-5	.	-4	-31	.	.	.	-19
CN(C)c1ccc(C(=O)NC2(N3CCC3=O)CCCC2)cc1	0	i	-1	3	8	0	8	.
O=C(CC(c1ccc(F)cc1)c1ccco1)N1CCCC1 (stereo not drawn)	.	i	0	2	-6	1	23	2
O=C(CN(C1CCCCC1)S(=O)(=O)c1ccc(F)cc1)Nc1ccc2c(c1)OCO2	-25	i	0	-1	2	-19	-13	-6
CCOc1ccc(CC(=O)C2C(=O)CCCC2=O)cc1OCC	.	i	-1	0	4	-10	21	5
C=CCc1cccc(C=Nc2cccn3cc(-c4ccccc4)nc23)c1O	-13	i	1	0	18	.	-1	.
Cc1nn(-c2ccccc2)c(C)c1C(=O)NCc1ccccc1F	-13	.	1	3	-8	-11	-10	5
O=C(COC(=O)c1cccnc1)Nc1ccc(F)cc1	-18	i	1	3	6	.	-5	-17
CC(=O)c1ccc(C(=O)N(CCN(C)C)c2nc3c(Cl)cccc3s2)cc1	5	i	5	3	-10	-8	-6	-13
O=C(NC1CCCCC1)C(c1ccc(F)cc1)N(CCc1ccccc1)C(=O)CN1C(=O)c2ccccc2S1(=O)=O (stereo not drawn)	-3	i	-12	-1	4	57	1	-16
Nn1c(SCc2cccc(Cl)c2)nnc1-c1ccncc1	5	i	3	4	2	10	-12	-11
N#Cc1cccc(OCC(=O)NC(=O)NCc2ccccc2)c1	-2	i	2	2	-4	-5	-10	.
COC(=O)c1c(C)oc(C)c1S(=O)(=O)Nc1ccccc1	15	i	-1	0	-8	-9	3	-11
COc1cc(/C=C(/C#N)c2nc3ccccc3[nH]2)ccc1OC(=O)c1ccco1	.	i	-298	0	8	19	5	3
Nc1c(-c2ccc3c(c2)OCCO3)oc2ccccc2c1=O	-81	i	0	2	-3	0	5	-7
CC1CCC(NC(=O)c2ccc(S(C)(=O)=O)cc2)CC1 (stereo not drawn)	-6	i	1	3	1	-8	1	.
Cc1c(OC(C)C(=O)NCC(O)c2ccccc2)ccc2c3c(c(=O)oc12)CCCC3 (stereo not drawn)	3	i	2	-3	-2	-8	8	.
COCCN(Cc1ccc(OC)cc1)c1c(C)nc2ccc(C(=O)NCCc3c[nH]c4ccccc34)cn12	20	.	-3	1	.	.	.	-2
O=C1C(=Cc2cccn2-c2ccc(O)cc2)C(=O)c2ccccc21	.	i	-6	-1	?	5	?	-19
Cc1cc2ncn(CCC(=O)NC(C)(C)C)c2cc1C	9	i	2	7	-7	-3	-7	.
COCCN1CCN(C(=O)c2ccc3oc(CCc4ccccc4)nc3c2)CC1	6	i	4	6	-10	-9	-6	-12
CCC1Sc2ccc(S(=O)(=O)CCC(=O)Nc3ccccc3Br)cc2NC1=O (stereo not drawn)	10	i	3	6	8	-19	-5	4

The list goes on; it opens with the three that closed the last part.
SMILES	HIV Env fusion	Rce1 inh	MT1-MMP act inh	MT1-MMP act inh RFP	eIF4H inh	CSC inhib	PABP polyA inh	Yeast UUG start	others
Cc1cc2ncn(CCC(=O)NC(C)(C)C)c2cc1C	9	i	2	7	-7	-3	-7	.
COCCN1CCN(C(=O)c2ccc3oc(CCc4ccccc4)nc3c2)CC1	6	i	4	6	-10	-9	-6	-12
CCC1Sc2ccc(S(=O)(=O)CCC(=O)Nc3ccccc3Br)cc2NC1=O (stereo not drawn)	10	i	3	6	8	-19	-5	4
O=C(CCCn1cncn1)N1CCCC(N2CCN(c3ccc(F)cc3)CC2)C1 (stereo not drawn)	-3	i	2	2	-2	-10	-7	6
CCN1C(=O)C(CC(=O)Nc2ccc(OC)cc2)N(CCc2ccccc2F)C1=S (stereo not drawn)	10	i	3	-7	-7	32	10	.
CCOc1cc(C)c(Cl)cc1S(=O)(=O)NC1CC(C)(C)NC(C)(C)C1	-36	i	-1	-2	-4	6	4	.
Cc1cnc(NS(=O)(=O)c2ccc(N)cc2)nc1-c1ccccc1O	-5	.	-4	4	.	.	.	-7
O=C1CC(c2ccccc2F)c2cc3c(cc2N1)CCC3 (stereo not drawn)	.	i	-5	-12	-2	.	-15	-4
COCC(=O)Nc1ccc2c(c1)OCC(=O)N2Cc1ccc(C)cc1	-3	i	-1	-3	-6	-8	0	-22
COc1cccc(OCc2cc(C(=O)N3CCN(c4ccccc4O)CC3)no2)c1	-28	i	1	-2	-9	38	5	-2
O=C(NC1CCCCC1)N1CCCC1	-31	i	-3	1	0	-9	2	-12
CCN(CC)c1ccc(NC(=O)CC2Oc3ccccc3NC2=O)c(C)c1 (stereo not drawn)	-31	i	1	2	5	-13	-4	-13
CN=C(c1ccc(C)cc1)n1c(=S)nc(-c2ccc(C)cc2)n(C)c1=S	-30	i	-3	1	3	4	67	-18	eIF4H inh retest=-5;PABP polyA inh retest=6
CC#CC[N+](C)(C)CCCCCCCCCC	14	i	-3	-25	-1	52	9	-5
CCNC(=S)N1CCCC(c2nc3ccc(C)cc3[nH]2)C1 (stereo not drawn)	-6	i	5	2	1	3	-1	.
CN(C(=O)CC1C(=O)NCCN1Cc1ccc(F)c(F)c1)C1CCOCC1 (stereo not drawn)	2	i	-1	-1	23	6	14	-16
O=C(NCc1ccccn1)c1cc(-c2ccc(Br)cc2)nc2ccccc12	-23	i	-2	-6	2	-2	0	-19
O=C(C[C@@H]1C/C=C\CC[C@@H](Cc2ccc(F)cc2)C(=O)OC[C@@H]2CCCN2C1=O)NCCO	3	.	-1	3	.	.	.	-5
CCC(C)Sc1nc2c(c(=O)n1C)SC(C)C2 (stereo not drawn)	16	i	-3	-3	19	6	7	11
Cc1[nH]c(=O)[nH]c(=O)c1S(=O)(=O)N(C)Cc1ccccc1	.	i	3	3	5	-18	0	-4
CC1(Cc2cccc(C(F)(F)F)c2)C(=O)Nc2ccc(-c3ccc(F)c(Cl)c3)cc21 (stereo not drawn)	19	.	-10	-7	.	.	.	-10
COc1ccc(-c2noc(CN(C)C(=O)c3ccc4c(c3)OCO4)n2)cc1OC	21	i	3	5	-19	-8	0	5
N/C(Cn1cncn1)=N\NC(=O)C(=O)Nc1cccc(C(F)(F)F)c1	-5	i	3	6	-8	5	5	3
COc1ccccc1N(Cc1ccccc1)S(=O)(=O)c1cccc(C(=O)N2CCCCC2)c1	26	.	1	-10	.	1	.	-6
S=C(NCc1ccc2c(c1)OCO2)NCc1ccco1	-5	i	-9	-3	0	-3	2	.
CC(=O)Nc1cccc(NC(=O)CSc2nn3c(=O)c(C)nnc3s2)c1	-13	i	-1	2	-12	2	8	0
CC(C)C(=O)NS(=O)(=O)c1ccc(NS(C)(=O)=O)cc1	17	i	1	3	-2	5	1	.
COC(=O)c1c(NS(C)(=O)=O)sc2c1CCCC2	.	i	-9	1	4	.	13	-2

Other records follow.
SMILES	HIV Env fusion	Rce1 inh	MT1-MMP act inh	MT1-MMP act inh RFP	eIF4H inh	CSC inhib	PABP polyA inh	Yeast UUG start	others
COc1ccc(NC(=O)C2(C)Cc3c(-c4ccc(N(C)C)cc4)ccnc3O2)cn1 (stereo not drawn)	7	.	-4	-3	.	.	.	-14
O=C(O)c1cccc(-n2cccc2/C=C2\SC(=O)N(Cc3ccccc3F)C2=O)c1	-9	i	10	6	0	17	-1	.
COc1ccc(-c2nnc(SCC(=O)c3cc(C)n(Cc4cccs4)c3C)o2)cc1	-4	i	4	0	12	6	19	-22
Cc1ccc2nc(-c3ccccc3)cc(C(=O)N(C)CC(=O)Nc3ccccc3Br)c2c1	11	i	1	-4	.	.	.	.
CC1CN(Cc2ccccc2)c2ccccc2NC1=S (stereo not drawn)	0	i	-4	-3	17	11	6	-34
CCN(/C=N/S(=O)(=O)c1ccc(Cl)cc1)CC	14	i	-3	0	-5	-19	-10	.
